# Assay outcomes: PubChem BioAssay, Southern Research Institute
# Mtb growth = Mycobacterium tuberculosis H37Rv growth inhibition, putative kinase inhibitor library, confirmatory dose response (AID 2842); M. tuberculosis H37Rv growth inhibition; higher % means a stronger effect; some inactives read as strong as hits; inhibition, % at 10 µg/mL, or IC90 in µg/mL where a hit was titrated; actives 5.2% (n = 24,000);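 active = confirmed in a dose series; inconclusive = mostly over 85% at the one dose but not retested; inactive = below 85% or not confirmed; about a fifth of its hits are not listed in these tables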;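 also: bacteria incubated one week before Alamar blue readout; 0% = bacteria only wells and 100% = bacteria with high antibiotic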
# * marks the source's active call; other numbers are inactive results; ? = inconclusive. These rows are one share of the data; rates above refer to the full screens.
SMILES,Mtb growth
O=c1[nH]c(N/N=C/c2ccc3c(c2)OCO3)nnc1-c1ccccc1,-7%
Nc1ncnc(N2CCCC2)c1[N+](=O)[O-],-6%
O=C(Nc1nnc(-c2ccc(Br)cc2)s1)C1CC1,7%
COC(=O)c1cccc(Nc2ncnc3sc(C)c(-c4ccccc4)c23)c1,1%
CCOC(=O)c1nn(-c2ccc(Cl)cc2)c(=O)c2c(NC(=O)c3ccccc3C)scc12,7%
COc1ccc2c(c1)c(=O)c(S(=O)(=O)c1ccc(C(C)C)cc1)cn2Cc1cccc(F)c1,5%
COc1cc(/C=C(\C#N)C(=O)Nc2cccc(C(F)(F)F)c2)ccc1O,2%
Cc1ccc(-n2c(=O)[nH]c3c(C(N)=O)nc(CCc4ccccc4)nc32)cc1C,-6%
CCSc1nnc(Cc2cc(=O)[nH]c(=O)[nH]2)n1-c1ccc(Cl)cc1,-5%
O=C(Nc1nnc(-c2ccc3c(c2)OCCO3)o1)C1CCCCC1,?
Brc1cccc2sc(N3CCc4ccccc4C3)nc12,70%
Cc1ccc(C2CC(=O)NC(SCC(N)=O)=C2C#N)o1 (stereo not given),6%
c1ccc2oc(SCc3cn4cccnc4n3)nc2c1,-7%
Cc1cccc2c1Oc1nc(-c3ccccc3)nc(SCC(N)=O)c1C2,-3%
COC(=O)c1sc(-c2ccccc2)cc1NC(=O)c1ccc([N+](=O)[O-])s1,-2%
COc1cccc(N2CC(C(=O)Nc3nnc(SC4CCCC4)s3)CC2=O)c1 (stereo not given),1%
NC(=O)c1c(NC(=O)c2cccc(Oc3ccccc3)c2)sc2c1CCN(Cc1ccccc1)C2,1%
O=C(Nc1nc2c(s1)CCc1ccccc1-2)c1ccc(N2C(=O)CCC2=O)cc1,19%
Cn1c(=O)c2c(SCC(=O)NCc3ccc4c(c3)OCO4)ccnc2n(C)c1=O,-8%
C=CCSc1nc2c(c(=O)[nH]1)C(c1cccnc1)C1=C(CCCC1=O)N2 (stereo not given),-1%
O=C(Nc1cccc(F)c1)C(=O)c1c[nH]c2ccccc12,11%
O=C(Nc1nnc(-c2cc(Cl)ccc2Cl)o1)c1ccc(C(=O)c2ccccc2)cc1,54%
O=C(Cn1cnc2c(cnn2-c2ccccc2)c1=O)Nc1ccc([N+](=O)[O-])cc1,0%
CCCc1c(C)c(C#N)c2nc3ccccc3n2c1NCCN1CCOCC1,0%
COc1ccc(C(=O)Nc2nc(-c3cc4ccccc4oc3=O)cs2)cc1,0%
# Following part:
SMILES,Mtb growth
O=C(Nc1nnc(-c2cc(Cl)ccc2Cl)o1)c1ccccc1Br,1.6µg/mL*
O=C(CSc1nnc(-c2cccnc2)n1-n1cccc1)Nc1cccc(C(F)(F)F)c1,-4%
O=C(CSc1ccc(-c2ccc(-n3ccnc3)cc2)nn1)Nc1ccccc1,-5%
CCOC(=O)c1nn(-c2ccccc2)c(=O)c2c(NC(=O)C(C)Oc3ccccc3)scc12 (stereo not given),-8%
CN1CCc2c(sc(NC(=O)c3ccc4ncsc4c3)c2C(N)=O)C1,13%
Cc1nnc(NC(=O)c2c(F)cccc2F)s1,-5%
CC(=O)c1ccc(C(=O)Nc2nc3c(s2)CCCC3)cc1,?
COc1ccc(/C=N\Nc2nccs2)cc1[N+](=O)[O-],-6%
O=C(CSc1ccccc1)Nc1nnc(-c2cccnc2)o1,7%
Cc1cc(C)nc(SCNC(=O)c2ccccc2)n1,3%
COc1ccc(NC(=O)CSc2nc3c(c(=O)n2-c2ccccc2)SCC3)cc1,7%
COc1ccccc1C1CC(c2cccc(NS(C)(=O)=O)c2)=NN1S(C)(=O)=O (stereo not given),-14%
CCOC(=O)c1ccc(NC(=O)CSc2nc(N)c(NC(=O)c3ccc(OC)c(OC)c3)c(=O)[nH]2)cc1,33%
CCCCNC(=O)c1cnc2n(c1=O)CCS2,0%
Cc1ccc(-n2nnnc2CNS(=O)(=O)c2ccc3ccccc3c2)cc1,13%
CCSc1ccc(C(=O)Nc2nnc(-c3ccco3)o2)cc1,0.71µg/mL*
CCOc1ccc(NC(=O)c2ccc(Br)cc2F)c([N+](=O)[O-])c1,-1%
NC(=O)c1ccccc1NC(=O)c1ccc(N2C(=O)CCC2=O)cc1,-10%
Cn1c(SCC(=O)N2CCOCC2)nnc1-c1c[nH]c2ccccc12,-13%
CCc1ccc(NC(=O)CSc2nc(N)c(NC(=O)c3ccco3)c(=O)[nH]2)cc1,69%
C=CCOc1ccc(/C(O)=C2\C(=O)C(=O)N(Cc3cccnc3)C2c2ccc(O)c(OCC)c2)cc1 (stereo not given),-29%
CCC(C)NC(=O)c1c(N)n(/N=C/c2cccc(O)c2)c2nc3ccccc3nc12 (stereo not given),60%
O=C(Nc1nc(-c2ccc(I)cc2)cs1)c1cc(=O)c2ccccc2o1,-6%
Cn1c(=O)[nH]c(=O)c2c1nc(N1CCN(Cc3ccccc3)CC1)n2CCSc1nc2ccccc2s1,98%
CCCCCCn1c(=S)[nH]c2c1c(=O)[nH]c(=O)n2C,14%
# The list continues:
SMILES,Mtb growth
CCOC(=O)c1c(NC(=O)c2ccc(Br)cc2)sc2c1CCCC2,7%
COc1ccc(N2CC(NC(=O)c3ccccc3[N+](=O)[O-])CC2=O)cc1 (stereo not given),15%
Cc1nn2c(C(=O)N3CCOCC3)c(C(=O)Nc3cc(Cl)cc(Cl)c3)sc2nc1=O,-7%
Cc1c(C)n2c(SCc3ccc(F)cc3)nnc2[nH]c1=O,-8%
CC(=O)c1ccc(C(=O)Nc2nc(-c3ccc4c(c3)OCO4)cs2)cc1,-9%
O=C(COc1ccccc1F)NC1CC(=O)N(c2ccc(Cl)cc2)C1 (stereo not given),8%
O=C(Nc1ncc(S(=O)(=O)c2ccc([N+](=O)[O-])cc2)s1)c1ccc(Br)cc1,-4%
O=c1[nH]ncc(N/N=C\c2ccncc2)c1Br,-12%
c1ccc2sc(N3CCN(c4nc5cc6c(cc5s4)OCCO6)CC3)nc2c1,3%
CC(C)OC(=O)c1ccc(N2C(=O)C=CC2=O)cc1,31%
COc1cccc(/C(O)=C2\C(=O)C(=O)N(Cc3cccnc3)C2c2ccccn2)c1 (stereo not given),-1%
COc1ccc(-c2nnc3ccc(SCC(=O)N4CCCC4)nn23)cc1,-7%
O=C(CC1CCS(=O)(=O)C1)Nc1ccc(I)cc1 (stereo not given),-2%
O=C(Nc1c(-c2ccccc2)c2cc(Br)ccc2[nH]c1=O)c1ccc(Cl)cc1,60%
O=C(Nc1cccc(F)c1)c1oc2ccccc2c1NC(=O)c1cc2ccccc2oc1=O,1%
COc1ccccc1CNC(=O)CSc1ccc(-c2ccc(OC)c(OC)c2)nn1,10%
O=C(Nc1ccc2c(c1)N(S(=O)(=O)c1cccs1)CCC2)c1ccc(Cl)c([N+](=O)[O-])c1,3%
Cc1ccn2c(-c3csc(Nc4ncccn4)n3)c(C)nc2c1,-11%
CCc1ccc(S(=O)(=O)c2nnn3c2nc(NC2CCCCCC2)c2ccccc23)cc1,-2%
CCc1ccc(-c2csc3ncn(CC(N)=O)c(=O)c23)cc1,1%
Cc1nnc(NC(=O)c2ccc(Cc3ccccc3)cc2)s1,19%
COc1cc(-c2nc(=O)[nH]c3ccc(Cl)cc23)cc(OC)c1OC,-16%
COc1cccc2c(=O)n(CC(=O)Nc3ccc(C)c(Cl)c3)ccc12,-5%
COc1cc(OC)cc(C(=O)NCCc2cc3ccc(C)c(C)c3[nH]c2=O)c1,-4%
COc1ccc2sc(Nc3cccc(Br)c3)nc2c1,5%

# 16 of the compounds above, with bars between the fields.
Structure | Mtb growth
CC(C)OC(=O)c1ccc(N2C(=O)C=CC2=O)cc1 | 31%
COc1cccc(/C(O)=C2\C(=O)C(=O)N(Cc3cccnc3)C2c2ccccn2)c1 (stereo not given) | -1%
COc1ccc(-c2nnc3ccc(SCC(=O)N4CCCC4)nn23)cc1 | -7%
O=C(CC1CCS(=O)(=O)C1)Nc1ccc(I)cc1 (stereo not given) | -2%
O=C(Nc1c(-c2ccccc2)c2cc(Br)ccc2[nH]c1=O)c1ccc(Cl)cc1 | 60%
O=C(Nc1cccc(F)c1)c1oc2ccccc2c1NC(=O)c1cc2ccccc2oc1=O | 1%
COc1ccccc1CNC(=O)CSc1ccc(-c2ccc(OC)c(OC)c2)nn1 | 10%
O=C(Nc1ccc2c(c1)N(S(=O)(=O)c1cccs1)CCC2)c1ccc(Cl)c([N+](=O)[O-])c1 | 3%
Cc1ccn2c(-c3csc(Nc4ncccn4)n3)c(C)nc2c1 | -11%
CCc1ccc(S(=O)(=O)c2nnn3c2nc(NC2CCCCCC2)c2ccccc23)cc1 | -2%
CCc1ccc(-c2csc3ncn(CC(N)=O)c(=O)c23)cc1 | 1%
Cc1nnc(NC(=O)c2ccc(Cc3ccccc3)cc2)s1 | 19%
COc1cc(-c2nc(=O)[nH]c3ccc(Cl)cc23)cc(OC)c1OC | -16%
COc1cccc2c(=O)n(CC(=O)Nc3ccc(C)c(Cl)c3)ccc12 | -5%
COc1cc(OC)cc(C(=O)NCCc2cc3ccc(C)c(C)c3[nH]c2=O)c1 | -4%
COc1ccc2sc(Nc3cccc(Br)c3)nc2c1 | 5%

# Other results follow:
SMILES,Mtb growth
C=CCn1c(SCc2ccc(C)cc2)nc2c1c(=O)[nH]c(=O)n2C,12%
Cc1ccc(-c2csc(NC(=O)c3cc(Cl)cc(Cl)c3)n2)cc1,38%
Cc1csc2nc(O)c(C(=O)NCCCO)c(=O)n12,-3%
CCN1C(=O)/C(=C\c2ccc(OCC(N)=O)c(OC)c2)SC1=S,-6%
COc1ccccc1N1CCN(c2cc(=O)n(-c3ccc(Cl)cc3)c(=O)[nH]2)CC1,3%
CCOC(=O)c1nn(-c2ccc(C(C)C)cc2)c(=O)c2c(NC(=O)c3ccc(S(=O)(=O)N(C)C)cc3)scc12,1%
COc1cccc(C(c2sc3ncnn3c2O)N2CC(C)CC(C)C2)c1 (stereo not given),-5%
CCN1C(=O)c2cccc3c(S(=O)(=O)NCc4ccco4)ccc1c23,-1%
CNC(=O)Cn1cnc2c(cnn2-c2cccc(Cl)c2)c1=O,-4%
CC(C)Sc1nc2c(c(=O)[nH]c(=O)n2C)n1CC(O)COc1ccccc1 (stereo not given),11%
COc1ccc(C(c2sc3nc(C)nn3c2O)N2CCOCC2)cc1 (stereo not given),13%
COCCOC(=O)c1c(C)oc2cc(Br)c(OCC(N)=O)cc12,0%
Cc1cc(=O)[nH]c2c(C)cc(S(=O)(=O)NC3CCCCC3)cc12,-5%
Cn1c(=O)[nH]c(=O)c2c1nc(SCCO)n2Cc1ccc(Cl)cc1,9%
Cc1ccc(NC(=O)CSc2ncnc3c2oc2ccccc23)c(C)c1,-5%
COc1ccc(-c2cc3ccc(OS(=O)(=O)c4ccc(F)cc4)cc3oc2=O)cc1OC,5%
CC1CCc2sc(NC(=O)C(C)C)c(C#N)c2C1 (stereo not given),16%
COc1cc(OC)cc(C(=O)Nc2sc3c(c2C#N)CC(C)CC3)c1 (stereo not given),5%
COC(=O)C1=C(C)NC(=O)NC1c1ccccc1 (stereo not given),-2%
Cc1ccccc1C(=O)Nc1nnc(C23CC4CC(CC(C4)C2)C3)s1,11%
C=CCc1cccc2cc(C(=O)Nc3cccc(-c4cn5cccc(C)c5n4)c3)c(=O)oc12,-1%
COc1ccc2nc(-c3cccc(NS(=O)(=O)c4cc(C)c(C)cc4OC)c3)cn2n1,2%
COc1ccc(NC(=O)CC2S/C(=N/N=C/c3ccc(O)c(OC)c3)NC2=O)cc1 (stereo not given),-5%
O=c1[nH]c(CSc2ccccc2)nc2ccccc12,7.5µg/mL*
CCOc1ccc(N2CC(NS(=O)(=O)c3cccnc3)CC2=O)cc1 (stereo not given),-4%
# Later entries.
SMILES,Mtb growth
Cc1ccc(S(=O)(=O)Nc2ccccc2C(=O)Nc2nc3c(cc4c5c(cccc53)CC4)s2)cc1,8%
O=C(CCCN1C(=O)/C(=C\c2ccco2)SC1=S)Nc1ccccn1,4.9µg/mL*
CCOc1ccc(C(=O)Nc2c(N)nc(SCC(=O)O)[nH]c2=O)cc1,-15%
Cn1c(=O)c2[nH]c(CN3CCCCC3)nc2n(C)c1=O,1%
COc1cc([N+](=O)[O-])ccc1NC(=O)c1ccc(S(=O)(=O)N(C)c2ccccc2)cc1,3%
O=C1CN(C(=O)c2ccc(Cl)cc2Cl)C(c2ccccc2)c2cc(Br)ccc2N1 (stereo not given),85%
C=CCSc1nnc(Cn2c(=O)sc3ccccc32)n1C,12%
Cc1cccc(C(=O)Nc2cc(C)c3c(=O)oc4ccccc4c3n2)c1,1%
Cc1ccc(-c2nnc3ccc(SCC(=O)NCc4ccco4)nn23)cc1,8%
Cc1cccc(NC(=O)CC2SC(N)=NC2=O)c1C (stereo not given),-3%
CC(=O)c1ccc(NC(=O)Cn2cnc3c(cnn3-c3ccccc3)c2=O)cc1,-5%
COC(=O)c1sc2ccccc2c1NC(=O)COc1ccc(Cl)cc1Cl,-13%
N#Cc1ccccc1N1C(=O)CC(Sc2ccccc2C(=O)O)C1=O (stereo not given),-13%
COC(=O)c1ccc(NC(=O)CCCCCN2C(=O)c3cccc4cccc(c34)C2=O)cc1,-18%
COc1cccc2sc(NNC(=O)c3nc4ccccc4s3)nc12,50%
CCCCCn1c(N(C)Cc2ccccc2)nc2c1c(=O)[nH]c(=O)n2C,6%
CCOC(=O)c1nn(-c2ccccc2)c(=O)c2c(NC(=O)c3ccc(OC(C)C)cc3)scc12,-9%
NC(=O)c1nc(-c2ccc(C(F)(F)F)cc2)nc2c1[nH]c(=O)n2-c1ccccc1F,1%
Cc1ccc(CSc2nnc(C)c(=O)n2N)cc1,8%
CN(C)c1ccc(NC(=O)c2cnc3sccn3c2=O)cc1,-4%
O=C(Nc1nnc(-c2ccc(Br)cc2)o1)c1cccc(N2C(=O)CCC2=O)c1,81%
